Screening data as filed in PubChem BioAssay.
NPYLR7 ag = activates Aedes aegypti NPYLR7 receptor; HEK293T NPYLR7/Galpha15, GCaMP6s calcium fluorescence; activation, % at 10 µM; 270,000 compounds, 0.15% hits; AID 1259423; in the data active = activation above about 40%;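 also: 0% = vehicle and 100% = reference agonist at the receptor; some compounds past the cut are filed as inactive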
NPYLR7 ag max-min = further read-out of NPYLR7 ag, marked with its call; activation, %; measured here: Max-Min RFU normalised activation; some inactives read as strong as hits;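 span of the calcium signal over five minutes; 0% = vehicle and 100% = native peptide agonist; compound fluorescence can raise it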
Numbers without * were called inactive; & = joins results of further samples.

SMILES | NPYLR7 ag | NPYLR7 ag max-min
CC(NC(=O)c1cc(-c2cccc(Br)c2)nc2ccccc12)c1ccccc1 (stereo not given) | 2 | 5
COCCN(Cc1ccc(OC)cc1)c1c(C)nc2ccc(C(=O)NCCN3CCCC3)cn12 | -5 | -9
C=CCn1c(=O)c2c(OCCC)ccnc2n(C)c1=O | 0 | -1
Cc1nnc2n1CCCCC2 | 18 | 16
COc1ccc(OC)c(NC(=O)c2oc3ccc(Br)cc3c2C)c1 | -2 | 8
COc1ccc(NC(=O)C2CCN(C(=O)[C@@H]3CCCN3C(=O)Nc3c(F)cc(Br)cc3Br)CC2)cc1 | -18 | -15
Cc1ccc(NC(=O)Cn2c(O)c(N=Nc3ccccc3)c3ccccc32)cc1 | -6 | -7
CC1Cc2ccccc2N1P1(=O)C=C(c2ccccc2)OC(c2ccccc2)=C1 (stereo not given) | 1 | 36
COc1ccc(Cl)cc1C(=O)NNC(=O)c1cccc(S(=O)(=O)N(C)C)c1 | -2 | -3
NC(=O)CCS(=O)(=O)CCN1CCN(Cc2ccc(Cl)s2)CC1 | 7 | 0
O=C(CCCn1ccnc1)NC1CC(=O)N(Cc2cccc3ccccc23)C1 (stereo not given) | 19 | 7
CC(C)CCSCC(=O)NCc1ccc(C(=O)N2CCN(C)CC2)cc1 | 5 | 4
CCOc1ccccc1C(=O)N1CCC(c2nc(-c3ccccc3Cl)no2)CC1 | -5 | -8
CCN(Cc1ccccc1)c1nc(-c2cccc(Cl)c2Cl)nc2ccccc12 | 0 | 1
CCNC(=O)N[C@H]1[C@H](O)C[C@@H]2CC(C)(C)OC[C@]21O | 2 | 5
Cc1c(Cl)cccc1NC(=O)CSc1nc(=O)n(CCCN2CCOCC2)c2c1CCC2 | -3 | -6
CN(Cc1ccccc1)C1CCCc2c1cnn2C (stereo not given) | -5 | -8
CN(Cc1cc(-c2ccccc2)no1)CC1CCOC1 (stereo not given) | 1 | 0
Cc1ccc(S(=O)(=O)N(CC(=O)N2CCc3sccc3C2COc2ccc(C)cc2C)CC2CCCO2)cc1 (stereo not given) | -3 | 2
CCC(=O)NC(NC(=S)Nc1ccc(NC(C)=O)cc1)C(Cl)(Cl)Cl (stereo not given) | 3 | 1
COC(=O)c1c(NC(=O)Cn2cnc3c(cnn3C)c2=O)sc2c1CCC(C)C2 (stereo not given) | 5 | 4
NC(=O)NC1NC(=O)NC1=O (stereo not given) | -3&-2 | -17&-5
CCOC(=O)C1(Cc2cccc(Cl)c2)CCCN(C(=O)CN2CCOC2=O)C1 (stereo not given) | 4&-7 | 2&-12
Cc1ccccc1Cn1ccnc1CN(C(=O)C(C)C)C1CCCCC1 | -7 | 11
Cc1cc(CSc2nc(=O)ccn2C(C)C)c2ccccc2n1 | 9 | 7
CCCn1cnnc1CNC(=O)COc1c(C)ccc(C)c1C | 0 | -8
COc1cc(=O)n(-c2ccc(F)cc2)nc1C(=O)NC(C)(C)C | 7 | 3
Cc1nc(CCN(C)C(=O)c2cccc(NCc3ccc(C)s3)c2)no1 | 3 | 0
CC(=O)Nc1ccc(NC(=O)C2CCN(c3cccc(Br)c3)C2=O)cc1 (stereo not given) | -5 | -7
CC(CNC(=O)c1cn(CCN(C)C)nn1)N1CCN(c2ccccc2)CC1 (stereo not given) | -9 | -9
Cc1nn(C)c2sc(C(=O)N3CCc4c(cnn4-c4ccc(Cl)cc4Cl)C3)cc12 | 1 | 18
O=C(O)c1cccc(-c2n[nH]c3ccccc23)c1 | -6 | -6
COc1ccc(OCc2nc(CSCc3ccc(F)cc3)cs2)cc1 | 4 | 2
CC(C)N1CCN(C(=O)c2c3c(nc4ccccc24)-c2ccccc2CC3)CC1 | 1 | 2
CC(C)N(Cc1nc(C(=O)N2CCN(c3ccc([N+](=O)[O-])cc3)CC2)cs1)C(=O)Nc1ccccc1 | -1 | 14
CCC(C)N(Cc1ccccc1)C(=O)CCNC(=O)c1cccc(C)c1 (stereo not given) | 18 | 13
O=C(CCC1CCCC1)N1CCN(c2cc(Oc3ccc(Cl)cc3)ncn2)CC1 | 10 | 11
Cc1nn(C)c(C)c1CCC(=O)Nc1cnc2ccccc2n1 | 7 | 5
COc1cc(-c2nc(CN(C)C(C)c3nc(C)cs3)c(C)o2)cc2c1OCO2 (stereo not given) | 21 | 2
CN(Cc1cc(=O)n2c([nH]c3ccccc32)c1C#N)c1ccccc1 | 6 | 4
O=C(c1cccnc1Cl)N1CCC(n2c(=O)oc3ccc(Cl)cc32)CC1 | 25 | 31
CC1=C(C/C=C(\C)CCC[C@H](C)CCC[C@H](C)CCCC(C)C)C(=O)c2ccccc2C1=O | 3 | -6
COc1ccc(CSc2nnc(NC(=O)c3ccc(C(C)(C)C)cc3)s2)cc1 | -3 | 2
[O-][n+]1c2ccc3nonc3c2nn1-c1ccccc1 | 3 | 2
CC(Cl)C(=O)Nc1nnc(SCC(=O)c2ccc(OCc3ccccc3)cc2)s1 (stereo not given) | 0 | 8
Cc1ccc(C(=O)Nc2ccc(C(=O)O)cc2)cc1S(=O)(=O)Nc1cccc(F)c1 | 17 | 16
CC(=O)Oc1ccc(C2C(C#N)=C(C)NC3=C2C(=O)CC(C)(C)C3)cc1 (stereo not given) | -2 | -8
CC1=NOC(C(=O)N(C)CCCn2nc(C)cc2C)C1 (stereo not given) | 0 | 25
CCOC(=O)C1=C(C)NC(=S)NC1c1ccc(O)c(OCC)c1 (stereo not given) | -2 | -3
C=CCN1C(=O)CC(Sc2ncccc2C(=O)O)C1=O (stereo not given) | 0 | 16
O=C(Nc1cccc(C2SCC(=O)N2c2ccc(C(F)(F)F)cc2)c1)c1cccc(Cl)c1 (stereo not given) | 18 | 23
O=C(c1cc2ccccc2s1)N1[C@@H](c2ccco2)[C@@H](CO)C[C@]12CCCCN(CCO)C2=O | 0 | 10
CN(C(=O)Nc1ccc(C2CC2)nn1)C1CCCCCCC1 | 2 | -2
O=C(Nc1onc2c1CCC2)c1nc2ccccc2s1 | 8 | 8
CCOC(=O)C1CCN(C(c2ccc(Cl)cc2)C2Sc3nc(-c4ccco4)nn3C2=O)CC1 (stereo not given) | -3 | -6
Cc1nn(C)c(C)c1CC(=O)NCC1CCCCC1 | -2 | -1
Cc1cc(SCc2ccccc2C)nc(=O)[nH]1 | 4 | 1
O=C(Nc1ccc2c(c1)OCO2)c1ccc(S(=O)(=O)N2CCCCC2)cc1 | -1 | -3
COC(=O)c1ccc(N2C(=O)C(C)Oc3cc(Cl)ccc32)cc1 (stereo not given) | 8 | 5
CCC(C)NCC(=O)N(Cc1ccccc1)Cc1sccc1C (stereo not given) | 3 | 2

4 structures out of the list, arranged by count of non-hydrogen atoms, high to low.
SMILES | NPYLR7 ag | NPYLR7 ag max-min
CC(Cl)C(=O)Nc1nnc(SCC(=O)c2ccc(OCc3ccccc3)cc2)s1 (stereo not given) | 0 | 8
CC(CNC(=O)c1cn(CCN(C)C)nn1)N1CCN(c2ccccc2)CC1 (stereo not given) | -9 | -9
CC(=O)Oc1ccc(C2C(C#N)=C(C)NC3=C2C(=O)CC(C)(C)C3)cc1 (stereo not given) | -2 | -8
CCOC(=O)C1=C(C)NC(=S)NC1c1ccc(O)c(OCC)c1 (stereo not given) | -2 | -3

Following part
SMILES | NPYLR7 ag | NPYLR7 ag max-min
Cc1ccc(S(=O)(=O)Oc2ccc(-c3nc4cc(C)ccc4o3)cc2Cl)cc1 | -1 | -1
CCCN(CC(=O)N1CC(=O)N(c2ccc(F)cc2)C1)S(=O)(=O)c1cccc(C(F)(F)F)c1 | 30 | 27
c1cncc(-c2nc3c4c(ncn3n2)-c2ccccc2CC42CCCC2)c1 | 7 | 7
C=CCn1c(-c2ccc(Cl)cc2)csc1=Nc1ccc(S(=O)(=O)O)cc1 | 3 | 1
Cc1nc2sccn2c(=O)c1NC(=O)c1ccccc1I | 14 | 8
COc1c(Br)cc(F)cc1NC(=O)c1cc(C)oc1C | 0 | 1
Cc1nc(C23CC4CC(CC(C4)C2)C3)co1 | 1 | -3
CCC(=O)NCc1cccc(-c2cccc3ccnn23)c1 | 24 | 9
O=C(O)CC1CNCCN(C(=O)Cc2c(Cl)cccc2Cl)C1 (stereo not given) | -3 | -4
COc1ccc(C(=O)N2CCCC(CNC(=O)C3(c4ccc(Cl)cc4)CC3)C2)cc1F (stereo not given) | 2&-10 | -3&-16
O=C(CC12CC3CC(CC(C3)C1)C2)NCCN1CCNC1=O | 12 | 10
CCCc1ccc(C2(C)NC(=O)N(CC(=O)N(C)C)C2=O)cc1 (stereo not given) | 16 | 11

Profiles, quoted from the list. Values in the order: NPYLR7 ag, NPYLR7 ag max-min
`Cc1nn(C)c2sc(C(=O)N3CCc4c(cnn4-c4ccc(Cl)cc4Cl)C3)cc12` is listed as 1, 18
`COc1ccc(OC)c(NC(=O)c2oc3ccc(Br)cc3c2C)c1` is listed as -2, 8
`COc1ccc(NC(=O)C2CCN(C(=O)[C@@H]3CCCN3C(=O)Nc3c(F)cc(Br)cc3Br)CC2)cc1` is listed as -18, -15
`CCNC(=O)N[C@H]1[C@H](O)C[C@@H]2CC(C)(C)OC[C@]21O` is listed as 2, 5
`Cc1c(Cl)cccc1NC(=O)CSc1nc(=O)n(CCCN2CCOCC2)c2c1CCC2` is listed as -3, -6

The listing continues.
SMILES | NPYLR7 ag | NPYLR7 ag max-min
CCOCCC(=O)N1CCN(Cc2ccc(-c3noc(-c4ccccc4)n3)cc2)CC1 | 1 | 0
O=C(N=C1N=C2C=CC(Br)=CN2Cc2ccccc21)c1cc2ccccc2oc1=O | 2 | -1
CC(=O)N1CCN(C(=O)c2cnc(-c3ccccc3Cl)s2)CC1 | 2 | 14
O=C(NCc1ccccn1)C(C1CCCC1)N1CCN(C(=O)CCc2ccccc2)CC1 (stereo not given) | -7 | -1
COCCCNC(=O)c1cc(NC(=O)Nc2ccc(C)cc2C)ccc1N1CCc2ccccc2C1 | -2 | 3
CN(Cc1nc(-c2ccncc2)no1)C(=O)[C@H]1CCCO1 | 0 | -2
COCc1cc(N2CCOCC2)nc(SCc2cccc(C(=O)NCc3ccncc3)c2)n1 | -5 | 0
O=C(Cc1cc(-c2cc3ccccc3o2)on1)NCc1ccc(F)cc1 | 4 | 8
COc1cn(C)c(C(=O)Nc2cccc(SC)c2)cc1=O | 7 | 7
CC(=O)N(CCN(C)C)Cc1ccc(OS(=O)(=O)C(C)C)cc1 | -2 | 0
N#CC1(C(=O)N2CCC(n3cnc4ccccc43)CC2)CC1 | -2 | 4
CCC(C)n1c(C)cn2c3c(=O)n(C(C)C(C)=O)c(=O)n(C)c3nc12 (stereo not given) | -2 | 16
O=C1CC(c2nc3ccccc3[nH]2)CN1c1ccc(Cl)cc1 (stereo not given) | 3 | 3
CC(C)(C)C(NCN1C(=O)C2CCC1C2)c1cccs1 (stereo not given) | 1 | -1
O=C1CC(N2CCN(c3ccccn3)CC2)C(=O)N1c1ccc(F)cc1 (stereo not given) | -1 | -3
CN1CCCNC(=O)C12CCN(Cc1ccc(S(C)(=O)=O)cc1)CC2 | 3 | 1

A portion of the library; the hit share may differ from the screen's.
